# Rango complex inh: inhibitors of Rango-importin beta complex formation; Q14974; Rango CFP/YFP FRET sensor + importin beta, 45 min; Potency, µM (titrated, usually from 92.2 µM), for the others: top-dose inhibition of complex formation; 340,000 compounds, 0.031% hits; active = rising FRET ratio curve, often small or poorly fitted; inconclusive = mostly compound fluorescence or quenching in the first reads; inactive = flat curves in all reads;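 note: potency is the fitted concentration of half-maximal effect; 0% = DMSO wells and 100% = buffer wells lacking importin beta; nearly all actives have a fitted effect of over 15% in size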
#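 FRET biosensor (snurportin 1 IBB flanked by EYFP and cerulean), 50 nM, with compound 5 min, then 0.125 microM importin beta in PBS, 1 mM DTT, 0.02% Tween-20, 0.1% BSA. CFP/YFP ratio read after 45 min at room temperature; pre-read flags interference.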
# GLA inh pH 4.5: alpha-galactosidase A (human) inhibition, pH 4.5; P06280; purified enzyme, 4-MU-alpha-Gal fluorescence, pH 4.5; activity change, negative = inhibition, % at 105 µM; 230,000 tested, under 10 active; AID 1467; inconclusive = small, poorly fitted or top-dose-only inhibition, or a rising curve; inactive = flat fitted curve, though single readings scatter; no compound was filed as active;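 note: 0% = full activity with enzyme and -100% = basal without enzyme; dose as in the result columns while the protocol names 77 µM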
# Target sequence (P06280 whole entry, looked up): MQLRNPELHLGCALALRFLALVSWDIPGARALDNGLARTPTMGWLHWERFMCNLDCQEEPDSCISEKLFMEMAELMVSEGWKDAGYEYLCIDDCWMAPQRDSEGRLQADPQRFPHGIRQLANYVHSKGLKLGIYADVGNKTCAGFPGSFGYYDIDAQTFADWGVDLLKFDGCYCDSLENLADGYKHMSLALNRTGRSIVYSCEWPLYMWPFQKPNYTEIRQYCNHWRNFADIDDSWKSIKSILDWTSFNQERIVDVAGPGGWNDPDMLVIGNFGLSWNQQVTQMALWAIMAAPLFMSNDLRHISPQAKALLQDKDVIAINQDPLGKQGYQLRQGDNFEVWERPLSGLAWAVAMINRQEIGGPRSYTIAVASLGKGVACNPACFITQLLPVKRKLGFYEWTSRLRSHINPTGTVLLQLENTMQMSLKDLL
# miR-21 FLuc: raises the signal of a miR-21 reporter | HeLa miR-21 FLuc reporter, luciferase, 48 h | Potency, µM (top dose mostly 38.3 µM), inactives show at the highest dose reporter change, positive = more light | 340,000 tested, under 10 active; active = well fitted rising curve with a large enough effect; inconclusive = small, poorly fitted or top-dose-only effect; inactive = no such curve, though single readings can be large or run the other way;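 note: % of control where 0% means no effect; miR-21 action dims this reporter so a rising signal means less miR-21 action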
#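 HeLa cells stably expressing CMV-driven firefly luciferase with a downstream miR-21 binding sequence, endogenously expressing miR-21, were treated with titrations (up to about 40uM final) for 48 hours at 37 degree Celsius. Luciferase luminescence was read after lysis.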
# Rango dissoc inh: inhibition of RanGTP-driven Rango-importin beta dissociation | O95149+P62826 | Biochemical FRET Rango-importin beta, RanGTP-induced dissociation | Potency, µM (highest dose often 46.1 µM), without a hit: top-dose activity change, negative = inhibition | 340,000 compounds, 0.071% hits | AID 540253; active means falling FRET ratio curve, often poorly fitted, with flat reads before Ran was added; inconclusive means other falling curves, or compound fluorescence or quenching; inactive means flat or rising ratio curve;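 note: potency is the fitted concentration of half-maximal effect; % of control where 0% means no effect; nearly all actives have a fitted effect of over 45% in size; -100% = wells without RanGTP and RCC1; the record marks most hits as doubtful in a second field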
#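 Rango (0.1 uM)–importin beta (0.25 uM) complex; RanGTP-RCC1 trigger; 45 min RT; CFP/YFP FRET read.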
# Starred values were filed as active, the others as inactive; u = inconclusive; x = not tested or not shown; & = joins results of further samples. The list is partial; rates above refer to the full screens.
SMILES,Rango complex inh,GLA inh pH 4.5,miR-21 FLuc,Rango dissoc inh
NC(=O)c1ccc(NC(=O)CSc2nnc(C3CCCCC3)n2N)cc1,3.7%,x,3%,6%
COc1cc2c(cc1OC)C(C)N(S(=O)(=O)c1ccc(Cl)nc1)CC2 (stereo not drawn),-0.4%,x,0%,8%
CCn1cc(C(=O)NCCc2ccc(Cl)cc2)c(=O)c2ccc(C)nc21,0.8%,x,4%,6%
OC1(c2cccs2)CN(c2ccccc2)C2=[N+]1CCCC2 (stereo not drawn),-3.4%,9,-2%,5%
Cc1ccc(NC(=S)N2CCN(S(=O)(=O)c3ccccc3)CC2)cc1,-1.0%,x,0%,1%
C=CCSC1=C(C#N)C(c2cccc(OC)c2)CC(=O)N1 (stereo not drawn),9.2%,-3,0%,16%
CCN(C(=S)NC(=O)c1ccco1)c1cccc2ccccc12,7.5%,x,x,19%
CCn1cc(C(=O)NCc2ccc3c(c2)OCO3)c(=O)c2cc(F)c(N3CCN(C(=O)c4ccco4)CC3)cc21,-5.8%,4,-4%,0%
Cc1cc(C)c(NC(=O)COC(=O)c2ccc([N+](=O)[O-])s2)c(C)c1,0.4%,12,-1%,0%
Cc1ccccc1N1CCN(CCCOc2ccc3c(C)cc(=O)oc3c2)CC1,2.4%,-8,-3%,11%
O=C(Cc1ccc(F)cc1)NC1CCCC1,-0.6%,5,-4%,-7%
COc1ccc(OC)c(Nc2cc(C)nc3nc(C)nn23)c1,3.2%,5,13%,-12%
N/C(=N\OC(=O)COc1ccc(Br)cc1Cl)c1cccnc1,-0.5%,0,-33%,0%
COc1cccc(NC(=O)CN2C(=O)COc3ccc(S(=O)(=O)N4CCCCCC4)cc32)c1,0.1%,x,6%&4%,3%
O=C(COc1cccc(F)c1)NNC(=O)Cc1ccc(S(=O)(=O)N2CCOCC2)s1,-3.5%,x,x,-4%
NC(=O)c1cc(-c2ccccc2)sc1NC(=O)CN1CCCCC1,0.6%,-13,-15%,7%
CC(C(=O)c1c[nH]c(C(=O)N=CN(C)C)c1)c1ncc(C(F)(F)F)cc1Cl (stereo not drawn),1.4%,-1,0%,-10%
COc1ccccc1C(=O)Nc1ccc(Br)c2cccnc12,1.6%,x,-11%,-4%
Cc1ncc([N+](=O)[O-])n1CC(=O)Nc1ccc(F)c(F)c1,u,x,0%,-5%
CCCn1c(SCC(=O)Nc2ccc3c(c2)OCO3)nc2c1c(=O)n(C)c(=O)n2C,5.3%,6,-2%,-3%
CC(C)(C)NC(=O)NC(=O)COc1ccc(Br)cc1Br,2.4%,2,-73%,1%
CC1CCCC(C)N1C(=O)COC(=O)c1cc(Br)ccc1Cl (stereo not drawn),1.8%,-3,-2%,12%
CCOc1ccc(Br)cc1C(=O)N/N=C/c1cccc(C)n1,0.9%,x,-1%,1%
COc1cccc(-c2nnn(CC(=O)NC3CCCC3)n2)c1OC,-4.4%,6,-1%,-5%
COc1ccc(CC(=O)Nc2cccc(S(=O)(=O)N3CCCCC3)c2)cc1,-4.2%,x,x,0%
COc1ccc(/C=C2\SC(=O)N(CCC(=O)N3CCCCC3)C2=O)cc1OC,3.8%,x,-2%,4%
CCCNC(=O)NS(=O)(=O)c1ccc(Cl)cc1,-1.7%,-4&-3&2&-4,-5%,-24%
COc1ccc(CCNC(=O)c2cccc(S(=O)(=O)N3CCc4ccccc4C3)c2)cc1,-0.2%,x,x,-8%
C[C@]12C(=O)N(c3cccc(Cl)c3)C(=O)N1[C@H]1c3ccccc3OC[C@@H]1[C@H]2c1ccccc1,2.4%,x,18%,1%
COc1ccc(C)cc1N(CC(=O)N1CCc2ccccc2C1)S(C)(=O)=O,5.7%,9,-5%,28%
CSc1nc2ncc(C(=O)O)c(N)n2n1,-1.0%,-2,4%,0%
CCOc1ccc(C(=O)OCC(=O)NCc2ccccc2)cc1OCC,-1.6%,x,x,1%
CC(C)(C)OC(=O)N1Cc2ccccc2C[C@H]1C(=O)N1CCC[C@H]1C(=O)O,-0.7%,x,0%,10%
O=C(N/C(=C\c1cccs1)C(=O)N1CCCCCC1)c1ccccc1,-3.1%,-1,-6%,5%
COc1cccc(C(=O)N2CCN(S(=O)(=O)Cc3ccccc3)CC2)c1OC,-4.3%,2,-4%,15%
O=S(=O)(NC1CC1)c1ccc(S(=O)(=O)N(Cc2ccccn2)C2CCCC2)cc1,-0.2%,-2,9%,-1%
CCCCCCNC(=O)CC(NS(=O)(=O)c1ccc(OC)cc1)C(C)C (stereo not drawn),-0.1%,3,-3%,-4%
O=C(CNC(=O)c1ccco1)OCc1ccccc1Cl,2.0%,x,x,1%
CC(OC(=O)C1CCCCC1)C(=O)Nc1cccc([N+](=O)[O-])c1 (stereo not drawn),2.1%,x,x,-7%
CN(C)C(CNC(C(=O)Nc1ccc([N+](=O)[O-])cc1Br)c1ccccc1)c1ccccc1 (stereo not drawn),-0.8%,1,2%,-2%
O=C(Cc1cn2ccsc2n1)Nc1nc2c(s1)CN(Cc1ccccc1)CC2,u,-4,-13%,u
O=C(c1ccncc1)N1C2C=CC(C2)C1(C(F)(F)F)C(F)(F)F (stereo not drawn),x,-3,-2%,x
O=C(O)c1ccc(CP(=O)(c2ccccc2)c2ccccc2)cc1,5.4%,x,-4%,4%
Cc1c(C2=CCN(S(=O)(=O)c3ccc(Cl)cc3)CC2)c2ccccc2n1C,2.1%,-5,-5%,-15%
C[N+]1(CCOc2ccc([N+](=O)[O-])cc2)CCOCC1,-5.1%,-21,-2%,6%
S=c1[nH]nc(-c2ccc(Br)cc2)n1-c1ccc2c(c1)OCCO2,2.8%,-12,-11%,-11%
COc1ccc(C(=O)NC(=S)N2CCCc3ccccc32)cc1OC,-2.6%,-10,-19%,-19%
CCCCS(=O)(=O)Nc1ccc(C(=O)NCC2CCCO2)cc1 (stereo not drawn),-0.1%,1,2%,2%
COCCn1c(SCC(=O)Nc2cc(C)on2)nc2ccccc2c1=O,2.2%,x,x,-6%
Cc1onc(-c2ccccc2Cl)c1C(=O)NCc1cccnc1,-0.1%,8,-4%,6%

# The list goes on:
SMILES,Rango complex inh,GLA inh pH 4.5,miR-21 FLuc,Rango dissoc inh
COCCn1c(SCC(=O)Nc2ccc(OC)cc2OC)nc2ccccc2c1=O,-5.2%,x,5%,19%
COc1ccccc1C1C(C(N)=O)=C(C)Nc2nc(-c3ccc(Cl)cc3)nn21 (stereo not drawn),0.8%,-13,-11%,-14%
Cc1cc(N2CCN(C(=O)c3ccco3)CC2)nc(-c2ccccc2)n1,-0.7%,-4,15%,3%
Cc1cc(S(=O)(=O)NCc2cccnc2)ccc1-n1cnnn1,-2.1%,-1,1%,1%
Cc1occc1-c1nnc(SCC(=O)N2CCCCC2)n1C,-4.3%,x,x,1%
O=C1Nc2c(c(=O)[nH]c(=O)n2-c2ccccc2)C1(Nc1ncccn1)C(F)(F)F (stereo not drawn),-1.8%,3,-5%,-3%
Cc1cc(=O)oc2c(C)c(OC(C)C(=O)NCc3ccccn3)ccc12 (stereo not drawn),-1.2%,x,-1%,12%
COc1cccc(-c2ccc(C#N)c(SCC(=O)NCCc3cccc(Cl)c3)n2)c1,-1.8%,5,1%,-5%
Cc1cccc(C(=O)Nc2nnc(-c3ccc(C(C)(C)C)cc3)s2)c1,-3.1%,-8,-32%,29%
COc1ccc(N(CC(O)Cn2cnc3ccccc32)S(=O)(=O)c2ccc(C)cc2)cc1 (stereo not drawn),0.0%,-10,1%,1%

# Exported with the structure last: six of the compounds above
Rango complex inh	GLA inh pH 4.5	miR-21 FLuc	Rango dissoc inh	structure
-0.7%	-4	15%	3%	Cc1cc(N2CCN(C(=O)c3ccco3)CC2)nc(-c2ccccc2)n1
-2.1%	-1	1%	1%	Cc1cc(S(=O)(=O)NCc2cccnc2)ccc1-n1cnnn1
-4.3%	x	x	1%	Cc1occc1-c1nnc(SCC(=O)N2CCCCC2)n1C
-1.8%	3	-5%	-3%	O=C1Nc2c(c(=O)[nH]c(=O)n2-c2ccccc2)C1(Nc1ncccn1)C(F)(F)F (stereo not drawn)
-1.2%	x	-1%	12%	Cc1cc(=O)oc2c(C)c(OC(C)C(=O)NCc3ccccn3)ccc12 (stereo not drawn)
-1.8%	5	1%	-5%	COc1cccc(-c2ccc(C#N)c(SCC(=O)NCCc3cccc(Cl)c3)n2)c1

# (list continues)
SMILES,Rango complex inh,GLA inh pH 4.5,miR-21 FLuc,Rango dissoc inh
CCOC(=O)Cc1c(C)nc2cc(C)nn2c1C,3.2%,7,-2%,0%
C=CCOC(=O)C1C(=O)CC(C)(O)C(C(=O)OCC=C)C1c1ccc(OC)cc1 (stereo not drawn),-0.2%,5,-2%,30%
CCC(=O)NC(Nc1nc(C)cs1)(C(=O)OC)C(F)(F)F (stereo not drawn),4.8%,3,-10%,-2%
O=C1NC(c2ccccc2)=NC1(Nc1ccccn1)C(F)(F)F (stereo not drawn),-2.8%,0,-3%,17%
CCN(CC#CCC(O)(c1ccccc1)c1ccccc1)C(C)C,-2.8%,-3,-6%,1%
Cc1c(-c2ccco2)[n+](=O)c2c(n1[O-])CCCCC2,-1.5%,2,-5%,2%
Nc1ccccc1S(=O)(=O)NC1=NCCCCC1,-3.4%,9,-4%,7%
O=C(O)c1ccc(NS(=O)(=O)c2ccc3c(c2)C(=O)c2ccccc2C3=O)cc1,2.7%,-12,-6%,11%
CC(C)=CC(=O)Nc1nnc(C(C)C)s1,-0.3%,6,-40%,0%
CC(=O)Nc1cccc(NC(=O)C2CCN(C(=O)c3ccco3)CC2)c1,0.4%,x,-1%,u
Cc1ccccc1NC(=O)CN1C(=O)CSc2ccccc21,-1.1%,-1,-3%,-22%
CCOC(=O)C1C(=O)OC(C)(C)C1C(C)C(=O)c1ccc(C)cc1C (stereo not drawn),-1.7%,-11,-6%,1%
Cc1cc(=O)oc2c(C)c(OCC(=O)N3CCN(c4ccc(F)cc4)CC3)ccc12,-1.4%,x,6%,-6%
Cc1cc(C)cc(C(=O)N(NC(=O)Nc2ccc(Cl)cc2)C(C)(C)C)c1,-0.3%,2,2%,2%
COc1ccc(S(=O)(=O)NCc2ccc3c(c2)OCO3)cc1C,3.1%,-2,-4%,1%
Cc1cc(NCc2ccccc2)c2ccccc2n1,0.4%,x,13%,-5%
Cc1cc(N(CN2CCCC2=O)C(=O)c2ccc(F)cc2)no1,0.2%,9,-3%,-10%
Cc1ccc(C)c(S(=O)(=O)N2CCN(C(=O)Nc3ccccc3)CC2)c1,5.2%,x,-9%,8%
COc1cc(OC)cc(C(=O)N2CCN(C(=O)c3ccc(-c4ccccc4)cc3)CC2)c1,0.4%,-11,-5%,-3%
O=C(O)Cn1nc2c3c(cccc3c1=O)-c1ccccc1-2,u,x,-2%,7%
CCOC(=O)C1CCN(C(c2cccnc2)c2c(NC(=O)c3ccco3)sc(C)c2C)CC1 (stereo not drawn),-0.7%,-16,23%,21%
O=S(=O)(Nc1ncccn1)c1ccc(NC(=S)N2CCN(c3cccc(C(F)(F)F)c3)CC2)cc1,2.6%,x,x,-10%
C1CCN(c2nc3nonc3nc2N2CCCCC2)CC1,-1.2%,-4,-10%,2%
CCOC(=O)NC(=O)COC(=O)Cc1cc(OC)c(OC)c(OC)c1,-0.2%,-4,1%,-13%
CN1CCN(C(=S)NC(=O)/C=C/c2cccc3ccccc23)CC1,1.3%,-1,-13%,0%
Cc1ccc(OC(C)C(=O)Nc2ccccc2C(=O)NCc2cccnc2)cc1C (stereo not drawn),1.4%,x,4%,13%
CCN(C(=O)COC(=O)CCC(=O)c1cccs1)c1ccccc1,-3.2%,x,x,8%
COc1ccc(NCC(=O)Nc2cccc(C(F)(F)F)c2)cc1S(=O)(=O)N1CCOCC1,0.1%,x,x,3%
CCCN1CCN(CCCNC(=O)c2cc3c(s2)-c2c(C)cccc2OC3)CC1,0.7%,x,28%&1%,-3%
COc1ccc(C(=O)C2CCCN(Cc3cccn3-c3ccc(Cl)cn3)C2)c(OC)c1 (stereo not drawn),-3.8%,2,u,15%
CCOC(=O)c1cnc2c([N+](=O)[O-])cnn2c1C,-1.5%,-9,-1%,-10%
C/C(=N\NC(N)=S)c1ccncc1,3.1%,4,9%,1%
Cc1ccccc1-c1noc(C(C)NC(=O)c2ccco2)n1 (stereo not drawn),-1.9%,x,-2%&0%,3%
